Screening results (PubChem BioAssay)
PrP UTR inh – inhibition of PrP 5' UTR reporter expression. cell-based PrP 5' UTR mRNA reporter, plate reader. inhibition, % (test concentration not listed). hit rate 0.35% among 340,000;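 active = every replicate at 50% or more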;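 note: 0 = median of the neutral control wells; tested in H4 reporter cells; numbers are from one replicate; inactives centre near -14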
Mtb hypoxia rep – inhibitors of hypoxia-regulated fluorescent reporter in Mycobacterium tuberculosis; M. tuberculosis hypoxia-regulated fluorescent reporter, fluorescence; fluorescence inhibition, % (concentration not given with the values); hit rate 0.1% among 300,000; AID 1159583;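 active = 35 to 45% if threefold the growth effect, above 45% if 1.5-fold the growth effect; inactive = the rest, general growth blockers included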;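 note: wells of about 50 µL received 100 nL stock; 0% = vehicle wells and 100% = reference inhibitor wells; whole bacteria with a GFP reporter of the hypoxia response; strong numbers were not always called active; many hits fall short of the cut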
Sa RN4220 lethal – kills Staphylococcus aureus RN4220. inhibition, % (concentration not given with the values). S. aureus RN4220 growth, OD600, 16 h. hit rate 0.33% among 330,000;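 active = z-score of -3 or lower and OD600 up to 0.18 on both plates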;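 note: plate controls were untreated cells for no effect and reference antibiotic for full effect; stock transfer was 100 nL into about 80 µL; one replicate is shown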
ugtP null kill – compounds lethal to S. aureus RN4220 ugtP deletion mutant; AID 1259309; OD600 growth, 16 h; some inactives read as strong as hits; hit rate 0.54% among 330,000; growth inhibition, % (test concentration not listed);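 active = z-score under -3 and OD600 up to 0.15 on both plates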;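 note: plate controls were untreated wells for no effect and antibiotic for full effect; wells of about 80 µL received 100 nL stock; the first replicate is given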
Bead autofluor – compound fluorescence in toxin protease inhibitor counterscreen; compound autofluorescence counterscreen, microsphere flow cytometry; stronger effect = higher value; fluorescence intensity (no concentration beside the values); hit rate 3.1% among 360,000;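 active = at least 3 SD above the mean of all compounds, about 16000 in these data; inconclusive = too few beads counted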;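 note: 100 nL of 1 mM stock went into each well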
BJeLR lethal – kills HRASV12-expressing BJeLR cells; BJeLR (HRASV12) viability, CellTiter-Glo ATP luminescence, 48 h; reference of the scale not given here; hit rate 0.17% among 300,000; AID 1554; inhibition, % (concentration not given with the values);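 active = replicate mean above 50%; inconclusive = above 50% but judged a plate artefact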;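 note: 50 nL library stock added to about 25 µL; numbers are from one replicate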
Mtb hypoxia rep growth – further read-out of Mtb hypoxia rep, marked with its call; growth inhibition, %; measured here: M. tuberculosis growth (absorbance);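 0% = vehicle and 100% = reference antibiotic; read after six days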
An asterisk follows results filed as active; ? = inconclusive; . = no result given.

SMILES	PrP UTR inh	Mtb hypoxia rep	Mtb hypoxia rep growth	Sa RN4220 lethal	ugtP null kill	Bead autofluor	BJeLR lethal
O=C(Nc1ccccc1)Nc1ccc2nnsc2c1	-40	-6	-1	0.6	-26	5950	8
COc1ccc(C(=O)NCc2nnc(SCC(=O)N3CCCC3)o2)cc1OC	-11	5	-22	4.5	10	.	-14
O=C(Nc1cccc(-c2nc3cccnc3s2)c1)c1ccc(Cl)nc1	-3	2	-2	0.9	-6	4670	-6
O=C(OCN1C(=O)c2ccccc2C1=O)c1cccc(OC(F)F)c1	-29	-10	-7	3.0	4	3020	-12
CC(=NNC(=O)CSc1nc2ccccc2c(=O)n1-c1ccccc1C)c1cccs1	.	2	9	-0.1	-18	.	.
N#CCCCSc1ncccc1-c1nc2ccccc2[nH]1	-27	13	9	2.3	-7	19935*	.
Cc1ccc(-n2nc(C)c3c(C)c(CCC(=O)Nc4ccc(CN5CCCC5)cc4)c(C)nc32)cc1	4	.	.	.	.	4383	7
C=C(C)Cn1c(CCNC(=O)c2ccco2)nc2ccccc21	-24	-5	-2	-1.3	1	3118	-5
Cc1ccsc1/C=C1/CN(C)Cc2c1nc1ccccc1c2C(=O)O	-22	10	6	1.3	4	4178	-7
O=C(NC1CCCC1)C(c1ccncc1)N(Cc1cccs1)C(=O)c1csnn1 (configuration not stated)	-22	.	.	0.2	1	2934	-14
COc1ccc(OCCCC(=O)NCCc2ccccc2)cc1	-14	8	10	2.8	-2	11047	3
COc1cc(C2NC(C(=O)O)Cc3c2[nH]c2ccccc32)cc(OC)c1OC (configuration not stated)	-15	-5	15	-0.3	2	12893	6
Cc1cc(=O)[nH]c(SCC(=O)Nc2nnc(SCc3ccccc3)s2)n1	-10	.	.	.	.	3684	8
COc1ccc(NC(=O)CN(C2CCCCC2)S(C)(=O)=O)cc1Cl	-38	-1	6	4.2	-6	21935*	-5
O=C(NCCc1ccccc1)C1CCC(=O)N(Cc2cccc(C(F)(F)F)c2)C1 (configuration not stated)	-23	9	-2	-3.4	3	5942	4

Results in ugtP null kill and BJeLR lethal, for two of the compounds above:
smiles	ugtP null kill	BJeLR lethal
COc1ccc(OCCCC(=O)NCCc2ccccc2)cc1	-2	3
COc1ccc(C(=O)NCc2nnc(SCC(=O)N3CCCC3)o2)cc1OC	10	-14

Later entries.
SMILES	PrP UTR inh	Mtb hypoxia rep	Mtb hypoxia rep growth	Sa RN4220 lethal	ugtP null kill	Bead autofluor	BJeLR lethal
O=C1/C(=C/c2ccccc2F)SC(=S)N1CC(=O)N1CCCCC1c1cccnc1 (configuration not stated)	-9	.	.	5.9	6	5995	9
O=C(NN=C/C=C\c1ccco1)c1cccs1	.	-1	10	1.9	-11	.	.
Fc1ccc(Cn2c(-c3cscn3)nc3ccccc32)c(Cl)c1	-1	.	.	-7.8	-7	3666	-14
COc1ccc(OC)c(N(CC(N)=O)S(=O)(=O)c2ccc(OC)c(OC)c2)c1	-42	3	1	1.6	9	20080*	4
CCCCCNC(=O)Cc1ccc(S(=O)(=O)N2CCOCC2)s1	-15	4	12	6.8	3	.	-1
COCCCNC(=O)C1CCCCN1S(=O)(=O)c1ccc(F)cc1 (configuration not stated)	-6	6	5	4.2	11	.	-2
Cc1ccc(-c2c3c(nc4sc(C(N)=O)c(N)c24)CCCC3)o1	15	11	4	2.8	30	1997	-3
Cc1ccc(/C=C2/C(=O)NC(=O)N(CCc3ccc(F)cc3)C2=O)s1	-6	-6	-4	-1.3	5	2439	-3
COC(=O)C1=C(c2ccc(Cl)c(C(F)(F)F)c2)CC2CCC1N2C(=O)NCCOc1ccc(OC)cc1 (configuration not stated)	.	1	9	-12	-11	.	.
O=C(NCCC1CCCCN1S(=O)(=O)c1ccccc1)C(=O)NCc1ccccn1 (configuration not stated)	-13	14	1	2.0	13	7512	0
CC(=O)c1cc(C)ccc1OC(=O)c1ccncc1	-2	-1	2	-1.6	-2	3111	-3
CC1=CCC(C(=O)O)(C(=O)N/N=C/c2cccs2)C(c2ccc([N+](=O)[O-])cc2)C1 (configuration not stated)	0	.	.	.	.	21132*	7
CC1CCc2sc(C(=O)NCc3ccccn3)cc2C1 (configuration not stated)	-65	-2	5	0.2	1	5561	2
COC(=O)C1=CC(C(=O)OC)C2C3=C(C(=O)[C@@]2(C)NC(=O)c2ccccc2)C(c2ccccc2)n2c(=O)n(-c4ccccc4)c(=O)n2C3C1 (some centres not stated)	.	-2	-7	8.0	3	.	.
O=C(Cc1ccc(Cl)cc1)Nc1ccc(-c2cc3ccccc3oc2=O)c(Cl)c1	2	3	-9	-7.8	-24	10677	39
Cc1ccc(S(=O)(=O)N2C[C@@H]3CCCC[C@@H]3[C@@H](C)[C@H]2c2cn(Cc3ccccc3)c3ncccc23)cc1	10	-7	-1	-2.4	2	3399	.
CN1C2=CC=CC=CC2=[N+](C)C12C([N+](=O)[O-])=CC(=[N+]([O-])[O-])C=C2[N+](=O)[O-] (configuration not stated)	-51	-1	0	6.3	6	3302	4
CC(C)NC(=S)NN=Cc1cccs1	.	21	11	-0.1	5	.	.
CN1CC(c2ccccc2)C2(COc3ccccc3C2=O)C12C(=O)Nc1ccccc12 (configuration not stated)	-11	.	.	.	.	16749*	-21
O=C(c1c[nH]c(C(=O)N2CCN(Cc3ccccc3)CC2)c1)C1CCCCC1	-13	4	0	4.4	-7	4999	2
O=C(Nc1ccc2c(c1)OCCO2)NC1(C(F)(F)F)Oc2ccccc2O1	8	2	-2	-0.8	3	4242	0
O=C(O)c1ccc2nc(-c3ccccc3)sc2c1	-66	0	7	3.8	-4	2062	17
O=C(NC1CCCc2ccccc21)N[C@@H](Cc1ccccc1)C(=O)O (some centres not stated)	-17	14	5	1.8	4	3768	-9
Cc1ccc(CNCCNCCO)s1	-9	5	14	6.1	2	4328	-9
O=C(NCCCN1CCOCC1)c1cnn2c(-c3ccccc3)cc(-c3ccccc3)nc12	-8	-8	-2	1.6	-3	11080	3
CCCN1CCC(=O)N(CCN=[N+]=[N-])CC1	-25	-2	6	1.7	-1	3040	-5
CCCCCCCC(=O)NN=Cc1ccncc1	.	-5	1	2.5	6	.	.
Cc1ccc(-c2cc(C(F)F)n3ncc(C(=O)Nc4c(C)nn(Cc5ccccc5Cl)c4C)c3n2)cc1	-8	.	.	15	-24	4554	5
C=CC[N+]1(CC(=O)NCc2ccc(NC(C)=O)cc2)CCOCC1	0	10	10	2.9	5	6186	-6
CCCCN(C(=O)c1oc2ccc(OCC)cc2c1C)c1c(N)n(CCCC)c(=O)[nH]c1=O	-5	.	.	.	.	?	18

Whole records as entered above. Screens in order: PrP UTR inh	Mtb hypoxia rep	Mtb hypoxia rep growth	Sa RN4220 lethal	ugtP null kill	Bead autofluor	BJeLR lethal
O=C(NCCCN1CCOCC1)c1cnn2c(-c3ccccc3)cc(-c3ccccc3)nc12 as listed: -8	-8	-2	1.6	-3	11080	3
C=CC[N+]1(CC(=O)NCc2ccc(NC(C)=O)cc2)CCOCC1 as listed: 0	10	10	2.9	5	6186	-6
O=C(Nc1ccc2c(c1)OCCO2)NC1(C(F)(F)F)Oc2ccccc2O1 as listed: 8	2	-2	-0.8	3	4242	0
Cc1ccc(CNCCNCCO)s1 as listed: -9	5	14	6.1	2	4328	-9

(further entries)
SMILES	PrP UTR inh	Mtb hypoxia rep	Mtb hypoxia rep growth	Sa RN4220 lethal	ugtP null kill	Bead autofluor	BJeLR lethal
C=CCN1c2ccccc2C(=O)C(C)S1(=O)=O (configuration not stated)	-15	-5	6	0.9	0	3855	.
Cc1ccccc1CSc1ncnc2ccccc12	0	19	9	6.5	9	4084	-12
CCc1nc2sc3c(c2c(=O)n1NC(=O)CCl)CCCC3	-11	-1	2	1.2	-4	9242	-10
O=C(NNC(=O)c1cccnc1)Nc1ccc([N+](=O)[O-])cc1	-7	-7	5	-4.7	-9	2614	3
CS(=O)(=O)N(CC(=O)Nc1ccc2c(c1)OCO2)Cc1ccccc1	-29	6	5	2.8	0	9409	14
COc1ccc(-c2c(C)nn3c(N4CCC(C(=O)NCCN(C)C)CC4)cc(C)nc23)cc1OC	-11	0	9	2.0	-5	23368*	7
O=C(CN1CCN(C(=O)c2cccc(F)c2)CC1)NC1CCCCC1	.	.	.	-2.0	11	.	-5
COc1cc(/C=C(\C#N)C(=O)NC(C)C)ccc1OCc1ccc(C(=O)O)cc1	-21	-3	-14	1.8	10	5381	-2
Cc1ccc(SC/C(O)=C(\C#N)c2nc3ccccc3s2)cc1	-21	.	.	.	.	2321	-3
Cc1ccc(-n2c(-c3nn(C)c(C)c3Cl)n[nH]c2=S)cc1	-19	10	8	7.1	-5	4685	-2
O=C(O)c1ccc(NC(=O)c2ccccc2NC(=O)c2ccccc2Cl)cc1	-15	7	1	2.6	12	4466	-15
COc1ccccc1Nc1nc(N)nc(-c2oc3ccccc3c2C)n1	-53	5	8	-2.3	-11	9540	1
O=C(CCCN=C1NS(=O)(=O)c2ccccc21)OCC(=O)c1ccccc1Cl	1	9	0	5.7	11	?	-2
Cc1cc(C)cc(SCc2noc(C(=O)NCC3CC3)c2C(=O)NCC2CC2)c1	.	-1	-5	5.5	-5	.	7
CC(C)(CN1CCN(c2ccccc2)CC1)NS(=O)(=O)c1ccccc1	9	10	0	2.8	9	4007	4
COc1ccc(C2CC(c3cccs3)=NN2C(=O)CSc2nc(=O)n3ccccc3n2)cc1 (configuration not stated)	8	-4	1	1.9	4	5469	1
CS/C(=N\S(=O)(=O)c1ccc(N)cc1)NS(=O)(=O)c1cccs1	4	.	.	.	.	2422	6
CCCCC1(Cc2cccc([N+](=O)[O-])c2)C(=O)N(c2ccccc2)N(c2ccccc2)C1=O	-18	.	.	1.9	-4	2475	14
Cc1cc(C)cc(N2CN=c3s/c(=C\c4ccco4)c(=O)n3C2)c1	-16	.	.	.	.	2126	0
CC1CC(C(F)(F)C(F)(F)F)n2nc(C(=O)O)cc2N1 (configuration not stated)	-4	-8	7	7.6	2	2471	-1
CCCN1CCCc2cc(CN)ccc21	-54	8	11	0.6	-9	5923	8
Cc1cc(C)n2nc(SCc3c(F)cccc3Cl)nc2n1	-25	5	9	5.4	12	2833	8
CCN(CC(=O)Nc1c(F)cccc1F)C(=O)Cc1c[nH]c2ccccc12	-16	12	2	4.6	7	.	.
COc1cc(OC)c(CN2CCC(Cc3ccccc3)CC2)cc1Br	-18	-11	4	-1.2	-12	3432	10
COc1ccc(-c2nc(CS(=O)CC(=O)NCCCN3CCOCC3)c(C)o2)cc1OC (configuration not stated)	0	-11	-8	0.4	2	5146	-7
O=C1C(Cc2ccccc2O)NC(=S)N1c1ccccc1 (configuration not stated)	-27	12	4	1.9	0	4724	-13
O=C(Cn1nnc(-c2ccncc2)n1)Nc1ccc2c(c1)CCC2	-11	15	6	5.5	-2	5081	3
O=C(NCCc1ccccc1)C1CC(=O)N(CCc2ccccc2)C1 (configuration not stated)	-18	10	-1	0.8	2	4183	4
CCN1C(=O)C(=CN2CCN(C)CC2)SC1=S	.	10	0	5.9	2	.	.
COC(=O)[C@H](C)NC(=O)Nc1ccc(Oc2ccccc2)cc1	-11	6	-2	-1.0	-3	7215	1
Cc1c(NC(=O)/C=C/c2cn(-c3ccccc3)nc2-c2ccc(F)cc2)c(=O)n(-c2ccccc2)n1C	-3	4	17	-5.9	3	3683	-14
O=C(CCNC(=O)c1ccc(Br)cc1)NC1CCCc2ccccc21 (configuration not stated)	-13	8	5	4.0	6	?	32
Cc1c(Br)cc(C(=O)NC2CCCCC2)c(C)c1C	-16	6	1	0.4	-1	23067*	-3
Cc1cc(C)cc(C(=O)NC(=S)Nc2ccc3c(c2)OCCO3)c1	-86	-2	2	5.8	93*	2014	12
CCc1ccccc1NCc1cc(=O)oc2cc(C)ccc12	-20	2	-3	1.2	1	3798	4
CN(CC(=O)Nc1ccccc1Cl)CC(=O)Nc1cccc2ccccc12	-10	5	10	1.3	-5	4009	.
COc1ccc(-c2noc(CCC(=O)Nc3ccc4c(c3)OCCO4)n2)cc1	-8	.	.	-6.5	7	4387	-1
COc1ccc(CC(=O)Nc2nnc(C(C)C)s2)cc1OC	-6	18	4	8.6	4	4161	22
CCOC(=O)c1c(C#N)cnn1-c1ccc(C)cc1	-6	.	.	3.6	-4	2593	1
CCc1ccc(S(=O)(=O)N2CCN(c3ccccc3OC)CC2)cc1	-52	7	0	6.4	8	3560	7
COc1ccc(C2=NOC(Cn3c(Cc4ccc(Cl)cc4)nc4c3c(=O)n(C)c(=O)n4C)C2)cc1 (configuration not stated)	-6	-4	7	3.9	-4	2510	-8

The order is random; any-hit rate near 4%.
